High-throughput results (PubChem BioAssay)
Marburg entry inh: qHTS for inhibitors of binding or entry into cells for Marburg Virus. Marburg virus pseudotyped entry inhibition, cell reporter; control for the full effect not named in the record; about a third of the inactives were read at about 46 µM. Potency, µM (titrated, usually from 37.8 µM), for inactives: at the top dose activity change, negative = inhibition, hits mostly inhibitors. 300,000 compounds, 1.8% hits. AID 540276, 2011; active = well fitted inhibition curve with a large enough effect; inconclusive = small, poorly fitted or top-dose-only effect, or effect the other way; inactive = flat fitted curve, though single readings scatter; tested in HEK293 cells; about a fifth of its hits are not listed in these tables; further: on the % scale 0 is the no-effect control and ±100 the full control effect; luciferase read-out
SARS PLpro yeast: qHTS of Yeast-based Assay for SARS-CoV PLP; S. cerevisiae expressing SARS-CoV PLpro, growth rescue; control for the full effect not named in the record; Potency, µM (titrated, usually from 32.9 µM), without a hit: top-dose activity, positive = growth rescue; 330,000 compounds, 0.19% hits; active means well fitted rising curve with a large enough effect; inconclusive means small, poorly fitted or top-dose-only effect; inactive means no such curve, though single readings can be large or run the other way; further: 0% is about no effect; nearly all actives have a fitted effect of over 55% in size; growth read by luminescence after 48 h
Lassa entry inh: qHTS for Inhibitors of binding or entry into cells for Lassa Virus; Lassa virus pseudotype entry inhibition, cell reporter; control for the full effect not named in the record; Potency, µM (titrated, usually from 37.9 µM), for inactives: top-dose activity change, negative = inhibition, hits mostly inhibitors; 300,000 compounds, 1.2% hits; AID 540256, 2011; active means well fitted inhibition curve with a large enough effect; inconclusive means small, poorly fitted or top-dose-only effect, or effect the other way; inactive means flat fitted curve, though single readings scatter; tested in HEK293 cells; further: on the % scale 0 is the no-effect control and ±100 the full control effect; nearly all actives have a fitted effect of over 50% in size; luciferase read-out
Cruzain inh noDet: qHTS Assay for Promiscuous and Specific Inhibitors of Cruzain (without detergent); Cruzipain (Trypanosoma cruzi), P25779; purified cruzain, Z-FR-AMC fluorescence, no detergent; Potency, µM, for inactives: max response, negative = inhibition, actives largely listed as inhibitors; 200,000 compounds, 2.3% hits;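 further: plate controls were enzyme without inhibitor for no effect and buffer without enzyme for full effect; nearly all actives have a fitted effect of over 40% in size; top concentration of the series not given in the record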
Target sequence (P25779 123-467 limits assumed): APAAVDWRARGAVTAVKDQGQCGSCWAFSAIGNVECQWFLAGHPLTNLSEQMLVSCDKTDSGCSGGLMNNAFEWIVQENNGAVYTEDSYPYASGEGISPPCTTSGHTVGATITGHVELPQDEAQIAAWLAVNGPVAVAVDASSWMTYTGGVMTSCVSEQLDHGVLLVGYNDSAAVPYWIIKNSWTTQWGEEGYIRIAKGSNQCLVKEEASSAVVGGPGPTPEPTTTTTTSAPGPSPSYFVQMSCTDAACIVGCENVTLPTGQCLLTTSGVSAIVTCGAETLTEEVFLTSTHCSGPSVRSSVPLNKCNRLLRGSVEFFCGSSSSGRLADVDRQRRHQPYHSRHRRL
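Purified cruzain at 1.5 nM, pre-incubated 15 min with compound at room temperature in 100 mM sodium acetate pH 5.5, 5 mM DTT, 0.00005% Triton X-100. Reaction started with 2 uM Z-FR-AMC; AMC fluorescence increase over 60 s gives rate.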
2A StopGo: High Throughput Screening for Foot and Mouth Disease Virus Antivirals | human cells with a luciferase reporter of 2A StopGo recoding; control for the full effect not named in the record | Potency, µM (highest dose often 57.9 µM), inactives show top-dose signal change, negative = less light | 410,000 compounds, 1.2% hits; active = well fitted falling curve with a large enough effect; inconclusive = small, poorly fitted or top-dose-only effect; inactive = no such curve, though single readings can be large or run the other way; tested in HEK293T cells; further: on the % scale 0 is the no-effect control and ±100 the full control effect; nearly all actives have a fitted effect of over 45% in size; luciferase light after 4 h
Cruzain Triton: qHTS Assay for Promiscuous and Specific Inhibitors of Cruzain (with detergent). Cruzipain (Trypanosoma cruzi), P25779. purified cruzain, Z-FR-AMC fluorescence, 0.01% Triton. Potency, µM, inactives show max response, negative = inhibition, most hits filed as inhibitors. 200,000 compounds, 0.43% hits. AID 1478, 2009;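 further: plate controls were neutral wells for no effect and buffer without enzyme for full effect; nearly all actives have a fitted effect of over 40% in size; top concentration of the series not given in the record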
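Detergent-containing arm of a paired screen for aggregation-based inhibition: 0.01% Triton X-100 present. Cruzain at 1.5 nM cleaved 2 uM Z-FR-AMC at pH 5.5 with 5 mM DTT; AMC fluorescence gain over 60 s measured activity.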
NS1 inh: qHTS Assay for Inhibitors of Influenza NS1 Protein Function; Potency, µM (doses to about 46.1 µM), without a hit: at the highest dose activity, positive = more growth; 270,000 compounds, 0.4% hits; S. cerevisiae slowed by influenza A NS1, growth recovery by OD600; active means well fitted rising curve with a large enough effect; inconclusive means small, poorly fitted or top-dose-only effect; inactive means no such curve, though single readings can be large or run the other way; further: nearly all actives have a fitted effect of over 50% in size
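A cell-based growth assay was used: compounds that relieve NS1-induced slow growth of budding yeast raise OD600. Assay medium was yeast nitrogen base with ammonium sulphate and -URA supplement, pH 6.0, with 2% galactose.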
RE007 growth inh: qHTS Assay for Inhibitors of the HIV-1 protein Vpr; S. pombe RE007 Vpr strain, BacTiter-Glo ATP luminescence, 24 h; control for the full effect not named in the record; Potency, µM (titrated, usually from 92.2 µM), for the others: at the highest dose activity change, negative = less growth; 360,000 compounds, 0.21% hits; active = well fitted falling curve with a large enough effect; inconclusive = small, poorly fitted or top-dose-only effect; inactive = no such curve, though single readings can be large or run the other way;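 further: on the % scale 0 is the no-effect control and ±100 the full control effect; nearly all actives have a fitted effect of over 50% in size; the assay follows cell death caused by Vpr and the record does not say whether a fall means rescue or toxicity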
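Fission yeast strain RE007, carrying one chromosomally integrated HIV-1 vpr copy, was seeded at OD 0.01 in PMG+AL medium with 23 nL pinned compound. After 24 h at 30 °C and 99% humidity, viability was read by BacTiter-Glo luminescence.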
Starred values were filed as active, the others as inactive; ? = inconclusive; . = no result given; & = joins results of further samples; [ ] = another dose, or the depositor's remark. Unless noted, the call rests on the fitted dose curve; in most records, active means well fitted curve in the direction sought with a large enough effect; inconclusive means small, poorly fitted or top-dose-only effect, or another doubt; inactive means no such curve, though single readings can be large; an effect the other way counts as inactive or inconclusive. Potency means the concentration at half of the fitted maximal effect.

SMILES	Marburg entry inh	SARS PLpro yeast	Lassa entry inh	Cruzain inh noDet	2A StopGo	Cruzain Triton	NS1 inh	RE007 growth inh
Nc1ncnc2c1CN(Cc1ccccc1)CC2	-9.5%[46.1 µM]	.	-15.0%[46.1 µM]	.	-6.0%	.	.	-29.6%
Cc1cccc(NC(=O)CN2C(=O)CNC2=O)c1	14.1%	3.9%	?	8.2%	11.3%	6.3%	5.9%	-20.2%
COc1ccccc1CN1C(=O)c2ccncc2C1=O	3.0%	-3.0%	-1.2%	-4.1%	3.5%	2.3%	0.6%	7.1%
CCOC(=O)Cc1csc(NC(=O)CN(C)S(=O)(=O)c2ccc3c(c2)CCC(=O)N3)n1	-0.4%	0.4%	.	2.1%	?	-3.2%	17.5%	3.4%
Nc1nc(=S)c2ncn(C3CCCC3)c2[nH]1	11.9%[46.1 µM]	4.9%	15.4%[46.1 µM]	.	7.4%	.	6.5%	7.8%
COc1ccc(N=Cc2ccc(-c3ccccc3)o2)cc1	3.2%[14.2 µM]	0.2%	-13.7%	.	23.8%	.	-3.5%	-21.5%
CCOC(=O)c1c(NC(=O)C2CC=CCC2C(=O)O)sc(C)c1CC (stereo not drawn)	-17.0%	1.8%	3.6%	.	-17.1%	.	10.0%	7.3%
O=C(Nc1ccc(C(=O)N2CCCCC2)cc1)c1ccccc1Cl	?	-4.5%	-0.9%	.	2.2%	.	-4.8%	36.4%
O=C(NCc1ccc2c(c1)OCO2)c1c(F)c(F)c(F)c(F)c1F	12.5%	3.8%	?	-18.4%	16.3%	-2.1%	-4.5%	26.4%
CCN1CCN(c2nc3c(C)cccn3c(=O)c2/C=C(\C#N)C(=O)NC)CC1	-7.3%	-0.3%	?	.	-8.2%	.	12.2%	11.3%
Cc1ccccc1C(=O)Nc1cccc(-c2cn3cccnc3n2)c1	.	.	-21.0%[46.1 µM]	29.8%	-10.9%	-0.9%	.	.
Cc1c(C(=O)C(C)C)n(C)c2ccccc12	?	2.0%	-1.8%	4.0%	-7.3%	-1.5%	3.4%	-2.1%
O=C(CSc1nncn1-c1ccccc1)N1CCCC1	15.0%[46.1 µM]	2.0%	6.8%[46.1 µM]	.	1.1%	.	2.8%	5.0%
COc1ccc(/C=C2\SC(=O)N(CCNC(=O)C3CC4C=CC3C4)C2=O)cc1 (stereo not drawn)	?	-0.9%	?	.	14.3%	.	-3.1%	-2.0%
O=C(Cn1c(=O)ccc2cc(S(=O)(=O)N3CCCC3)ccc21)Nc1ccc(Cl)cc1	.	.	-27.1%[46.1 µM]	-9.6%	-5.3%	-1.7%	.	.
N/C(Cc1ccc(Cl)cc1)=N\OC(=O)c1ccc2ccccc2c1	2.82µM*	-23.4%	?	-1.5%	-9.9%	-3.9%	-60.0%	10.2%
O=C(NCCc1ccccc1)c1ccc(Br)o1	.	-7.9%	.	1.5%	44.5%[activator]	2.9%	-15.2%	0.8%
COc1ccc(Cc2[nH]n3c(=O)c(Cl)c(C)nc3c2-c2ccccc2)cc1	2.0%[46.1 µM]	0.9%	11.2%[46.1 µM]	.	-11.4%	.	2.1%	8.7%
CCCNC(=O)c1ccc(N2CCC3(CC2)CC(c2ccccc2)=NO3)c(NC(=O)c2cccc(C)c2)c1	.	8.7%	.	.	29.2%	.	?	19.9%
CCCCOC(=O)c1ccc(NC(=O)/C(C#N)=C/c2ccc(-c3ccccc3)o2)cc1	.	.	8.4%[46.1 µM]	25.1µM*	-25.7%	-4.2%	.	.
O=C(O)/C=C/c1cccc(OCc2ccccc2)c1	-18.4%[46.1 µM]	-5.0%	?	.	10.4%	.	-28.4%	-10.0%
Cc1ccc(S(=O)(=O)NCc2n[nH]c(=S)n2C)cc1	-3.5%	8.4%	4.7%	6.4%	35.9%[activator]	0.7%	17.5%	4.9%
O=C(CSCC(=O)N1CCN(c2ccccc2)CC1)Nc1nc(-c2ccc(Cl)s2)cs1	0.3%	5.6%	.	?	-7.8%	1.5%	10.9%	16.0%
COc1cccc2cc(C(=O)N(C)C3CCN(C)CC3)c(=O)oc12	9.0%	2.9%	2.8%	6.6%	-21.3%	-1.9%	-2.1%	0.1%
O=C(Cc1ccccc1[N+](=O)[O-])NCC1(c2cccc3c2OCO3)OCCO1	-13.2%	.	7.0%[46.1 µM]	.	-18.8%	.	.	-13.9%
COc1ccc(/C=N/n2c(SC)nnc(C(C)(C)C)c2=O)cc1	-3.1%	13.4%	?	-2.4%	-5.5%	-6.3%	3.6%	0.4%
COC(=O)c1cc2oc3ccccc3c2n1Cc1nc(-c2ccccc2C)oc1C	18.3%[46.1 µM]	.	.	7.9%	-8.4%	-1.4%	.	.
COCCCNC(=O)/C(C#N)=c1\s/c(=C\c2ccccc2OC(F)F)c(=O)n1CCCOC	3.4%	1.4%	-27.5%	?	-19.1%	-6.8%	-7.3%	-14.6%
O=S(=O)(Nc1cccc(-c2nnco2)c1)c1ccc(F)cc1F	.	0.3%	.	.	3.9%	.	1.5%	-2.9%
O=C(CSc1nnc(SCc2ccccc2Cl)s1)N/N=C/c1c[nH]c2ccccc12	?	5.1%	-2.3%	24.3%	-13.8%	-2.9%	13.0%	17.0%
O=C(Cn1nnc(-c2ccc(Cl)cc2)n1)NC1CCN(Cc2ccccc2)CC1	-26.1%[46.1 µM]	-6.1%	-33.6%	6.6%	-12.6%	-0.9%	-1.3%	-0.5%
CCOCCCn1c(=N)c(C(=O)NC(C)c2ccccc2)cc2c(=O)n3cccc(C)c3nc21 (stereo not drawn)	?	.	-11.3%[46.1 µM]	.	?	?	.	.
Cc1ccc(CN2CCSc3ccc(C(=O)NCCCN4CCOCC4)cc32)cc1	.	-2.5%	.	.	-5.1%	.	2.7%	-4.3%
CCOC(=O)c1cnc2c(C)cccc2c1Nc1cccc(C(=O)O)c1	.	-0.9%	.	.	-0.1%	.	0.5%	1.6%
COCCOC(=O)C1=C(N)OC2=C(C(=O)CCC2)C1c1cccnc1 (stereo not drawn)	0.7%	0.4%	0.8%	0.4%	-3.9%	-2.1%	-3.8%	3.6%
CN(C)CCCN(C(=O)c1ccc(S(=O)(=O)N2CCCCCC2)cc1)c1nc2c(F)cccc2s1	.	14.4%	.	.	-21.5%	.	-2.2%	14.7%
OCCCc1nc2ccccc2[nH]1	10.5%[46.1 µM]	0.5%	14.9%[46.1 µM]	.	6.2%	.	.	-3.9%
COC(=O)C1NN=C(C(=O)c2ccc(Br)cc2)C1c1cccc(Br)c1 (stereo not drawn)	?	-29.0%	0.6%	?	?	-7.3%	-33.8%	11.9%
COc1cccc(OCc2cc(C(=O)N(C)Cc3nc4ccccc4[nH]3)no2)c1	.	-3.1%	.	.	-15.0%	.	-10.1%	9.2%
O=C(Nc1ccc(F)cc1)c1cc(S(=O)(=O)N2CCCCC2)cs1	?	-1.8%	?	-4.7%	?	-1.7%	-1.9%	10.8%
CC(C)(C)NC(=O)CSc1nc(N)c(-c2ccccc2)c(=O)[nH]1	?	-1.2%	-4.3%	.	-27.8%	.	1.7%	4.0%
O=C(CN1C(=O)c2ccccc2C1=O)NCc1ccccn1	1.9%&1.9%[46.1 µM]	-4.4%	1.9%	-2.4%	0.0%	3.0%	4.5%	12.3%
CC(C)CC(=O)Nc1ccc(-c2cn3cccnc3n2)cc1	-2.8%	-2.8%	.	.	72.7%[activator]	.	2.4%	8.7%
Cc1cccc(N2CCN(C(=O)c3ccnn3C)CC2)c1C	.	-5.4%	.	.	10.7%	.	-0.7%	-8.2%
CCOC(=O)c1c(C)oc2nc(C)nc(NCCc3ccc(SC)cc3)c12	.	.	?	-2.1%	?	-0.7%	.	.
O=C(O)CC(NC(=O)C(F)(F)F)c1ccc2c(c1)OCO2 (stereo not drawn)	17.7%[46.1 µM]	0.4%	-15.3%	.	-2.2%	.	10.5%	-23.5%
CC(C(=O)Nc1ncc([N+](=O)[O-])s1)N1C(=O)c2ccccc2S1(=O)=O (stereo not drawn)	12.6%	0.8%	16.5%	.	-14.3%	.	.	11.4%
Cc1ccc(N=Cc2cc(C)n(C3CCCC3)c2C)cc1	1.3%	-1.6%	-0.5%	-4.0%	13.4%	1.0%	5.0%	5.7%
COc1ccc(NC2CCCN(C(=O)c3cccc(N(C)C)c3)C2)cc1 (stereo not drawn)	.	5.7%	.	.	-14.4%	.	-9.5%	0.2%
CCC(C)[C@H](NC(=O)[C@H](Cc1ccccc1)n1c(=O)[nH]c2ccccc2c1=O)C(=O)NCC1CCC(C(=O)O)CC1 (stereo partly drawn)	.	-2.0%	.	.	-8.8%	.	4.9%	2.0%
CCc1ccc(NC(=O)COc2cccc(-n3cnnn3)c2)cc1	?	-0.6%	-22.2%[46.1 µM]	.	-12.9%	.	-11.1%	-2.3%
CC(=O)c1ccc(NC(=O)C(Cc2ccccc2)n2cccc2)cc1 (stereo not drawn)	.	-5.0%	.	.	1.2%	.	-48.8%	-1.5%
NS(=O)(=O)c1ccc(N/N=C/c2ccccc2Br)cc1	?	-1.3%	?	.	26.3%	.	.	6.7%
COc1cc(NC(=O)CCN2CCN(CCO)CC2)cc(OC)c1	?	8.3%	-1.7%	-7.1%	12.9%&-15.9%	-0.6%	3.2%	-1.3%
CCOc1ccc(N2CC(C(=O)Nc3cccc(S(=O)(=O)N4CCCC4)c3)CC2=O)cc1 (stereo not drawn)	-19.6%[46.1 µM]	2.2%	?	.	-6.4%	.	.	3.4%
